VDR inhibitor: Inhibitors of the vitamin D receptor (VDR): qHTS | VDR-SRC2-3 peptide fluorescence polarization, 2 h | Vitamin D3 receptor (Homo sapiens), P11473 | actives 0.93% (n = 400,000) | Potency, µM, for inactives: max response, negative = inhibition, hits mostly inhibitors; active = well fitted inhibition curve with a large enough effect; inconclusive = small, poorly fitted or top-dose-only effect, or another doubt; inactive = no such curve, though single readings can be large or run the other way; also: series mostly up to about 120 µM
Target sequence (P11473 whole entry, looked up): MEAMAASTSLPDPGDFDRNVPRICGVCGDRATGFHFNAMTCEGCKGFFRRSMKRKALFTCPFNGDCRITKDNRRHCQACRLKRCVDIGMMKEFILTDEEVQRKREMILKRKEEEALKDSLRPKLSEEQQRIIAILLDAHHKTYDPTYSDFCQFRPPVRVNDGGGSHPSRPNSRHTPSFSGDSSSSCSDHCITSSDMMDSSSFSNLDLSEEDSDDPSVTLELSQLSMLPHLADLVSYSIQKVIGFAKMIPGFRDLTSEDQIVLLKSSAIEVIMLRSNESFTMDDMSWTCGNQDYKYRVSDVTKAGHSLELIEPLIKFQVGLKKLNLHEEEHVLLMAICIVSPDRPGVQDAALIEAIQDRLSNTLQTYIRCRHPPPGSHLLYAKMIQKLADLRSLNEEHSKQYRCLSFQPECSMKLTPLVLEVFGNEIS
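Measured by FP: displacement of SRC2-3 coactivator peptide from VDR by library compounds, following a two-hour ambient incubation.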
The depositor's hits bear a star; ? = inconclusive; & = joins results of further samples; ! = not active in a repeat. % is scaled to controls: 0 for no effect and ±100 for the full control effect; potency is read from the fitted curve at half-maximal effect. These rows are one share of the data, so the mix of outcomes need not match the whole.

SMILES,VDR inhibitor
O=C(NNS(=O)(=O)c1ccc(F)cc1F)c1csc(-c2cccnc2)n1,-6%
COc1ccc(CN(C)CC(=O)Nc2sc3c(c2C#N)CCC3)cc1OC,-4%
CCOc1ccc(C(=O)Nc2ccc3oc(-c4ccc(Br)cc4)nc3c2)cc1,-8%
C/C(CC(=O)Nc1cccnc1)=N\NC(=O)C(C)Oc1ccc(Cl)cc1Cl (stereo not given),6%
CCNc1nc(N2CCCC2)nc(N2CCCC2)n1,-23%
COC(=O)CCCC(=O)NC1CCCc2c1cnn2-c1ccc(F)cc1F (stereo not given),-12%
O=C1CC2(CCN(C(=O)c3ccc(Br)cc3)CC2)Oc2ccccc21,-1%
CCN1CCCC1CNC(=O)C(=O)Nc1cccc(OC)c1 (stereo not given),-7%
Cc1cc(C(=O)CSc2nc3ccccc3c(=O)[nH]2)c(C)n1CC1CCCO1 (stereo not given),2%
CC1Cc2nc(SCC(=O)N3CCN(c4ccccc4)CC3)n(CCc3ccccc3)c(=O)c2S1 (stereo not given),3%
Cc1cc(NC(c2cccnc2)c2c(C)[nH]c3ccccc23)no1 (stereo not given),2%
O=C1CCC(C(=O)N2CCC(CO)(Cc3ccc(Cl)cc3)CC2)=NN1,-6%
CS(=O)(=O)N(CCC#N)Cc1ccc(/C=C2\C(=O)Nc3ccccc32)o1,-4%
CSc1ccc(-c2sc(Nc3cccc4ccccc34)n[n+]2-c2ccccc2)cc1,79µM*
COc1ccc(NC(=O)Cc2ccccc2)cn1,-2%
CC1CCC(NC(=O)c2ccc3c(c2)S(=O)(=O)c2ccccc2C3=O)CC1 (stereo not given),0%
O=c1[nH][nH]c(C(F)(F)F)c1C=Nc1ccccc1,-2%
CN1C(=O)/C(=C/c2ccc(-c3ccccc3[N+](=O)[O-])o2)SC1=Nc1ccc(Cl)c(C(=O)O)c1,?
O=C(c1ccccc1)N1CCC(CC2CC(c3ccc(Cl)cc3)=NO2)(C(=O)NCC2CCCCC2)CC1 (stereo not given),-20%
Cc1nnc(N/N=C/c2ccc(-c3ccc(Br)cc3)o2)n1N,-26%
O=C(CNC(=O)c1cc(S(=O)(=O)N2CCOCC2)ccc1N1CCCC1)Nc1ccc(F)c(F)c1,-5%
COc1ccc(S(=O)(=O)N(Cc2ccccc2)c2ccccc2C(=O)Nc2ccccc2C(=O)NCc2ccco2)cc1,8%
CCc1cccc(C)c1NC(=O)c1ccoc1C,-1%
COc1ccc(S(=O)(=O)N2CCOCC2)cc1NC(=O)CN1C(=O)NC2(CCCCC2C)C1=O (stereo not given),-8%
CC1(C)CC(NC(=O)c2ccccc2NS(=O)(=O)c2ccc(Br)cc2)CC(C)(C)N1,-1%
COc1cccc(-n2ccn(CC(=O)c3ccc(F)cc3)c(=O)c2=O)c1,-2%
O=C(O)c1ccc2c(c1)C(=O)N(N1C(=O)c3ccccc3C1=O)C2=O,3%
Cc1ccnc(NC(=O)c2cc(-n3cnnc3)ccc2Cl)c1,5%
COc1cccc(Nc2nc(-c3ccc4c(c3)OCCO4)cs2)c1,-16%
COc1ccc(C2=CC(=O)CC(C)(C)C2)cc1,-20%
CN(C)C(=O)c1ccc(NC(=O)c2ccc(-c3ccc(Cl)cc3)o2)cc1,-15%
C=CCn1c(-c2ccc3[nH]c(C)c(C)c3c2)n[nH]c1=S,-11%
CCC/C(=N\NC(=O)CNC(=O)c1ccc(Cl)cc1)c1ccccc1,-20%
OCCN1CCN(C(=S)c2ccc(Br)cc2)CC1,-24%
COc1ccccc1-c1nc(-c2ccccc2)[nH]c(=O)c1C#N,-21%
COc1ccccc1CC(=O)Nc1c[nH]c(=O)[nH]c1=O,-7%
CN1CCN(S(=O)(=O)c2ccc(Nc3ccc(F)cc3)nc2)CC1,2%
N/C(=N\OC(=O)c1ccc([N+](=O)[O-])cc1)c1cccnc1,-24%
Cc1cc(C)c(/C=C/c2onc(C)c2S(=O)(=O)N2CCC(C(=O)N3CCN(c4ccc(Cl)cc4)CC3)CC2)c(C)c1,7%
COc1ccc(F)cc1S(=O)(=O)N1CCC2(CC1)OCCN2S(=O)(=O)c1cccs1,-20%
CC(C)NC(=S)NNC(=O)C12CC3CC(CC(C3)C1)C2,-4%
O=S(=O)(NCC(c1ccccc1)N1CCNCC1)c1ccc(Cl)cc1 (stereo not given),-1%
Cc1ccc(Sc2c(C)nn(C(=O)CNS(=O)(=O)c3ccc(F)cc3)c2C)cc1,10%
COc1cc(O)cc(/C=C/c2ccccc2)c1,8%&0%
O=C(c1cc2ncccn2n1)N1CCc2c([nH]c3ccccc23)C1c1ccccc1F (stereo not given),-8%
O=C(c1ccco1)N1CCC2(CCCN(Cc3ccncc3)C2)CC1,?
CCOc1cc(C(=O)OCc2ccc(C(=O)OC)o2)cc(Br)c1OC,-6%
Cc1ccc(C)c(NC(=O)N2CCN(C)c3ncccc32)c1,-1%
Cc1cc(OCC(=O)NCc2ccccn2)c2c(C)cc(=O)oc2c1,-9%
CCCCN(C(=O)c1cccs1)C1CCS(=O)(=O)C1 (stereo not given),-4%
COc1ccc(NC(=O)COC(=O)c2ncc(Cl)c(Cl)c2Cl)c(OC)c1,-20%
Cc1nc2nc(C)c(NS(=O)(=O)c3cccs3)c(=O)n2[nH]1,8%
CC(=O)Nc1ccc(SCC(=O)c2c(N)n(Cc3ccccc3)c(=O)n(C)c2=O)cc1,7%
CCOC(=O)C1(CCOC)CCN(C2C3CC4CC(C3)CC2C4)CC1 (stereo not given),12%
CC1(C)N=c2ccc([N+](=O)[O-])c(N)c2=[N+]1[O-],-6%
CN1CCN(C2Cc3ccc(Cl)cc3Sc3ccc(F)cc32)CC1 (stereo not given),-11%
CNNC(=S)NCCC1=CCCCC1,-21%
CCOc1ccccc1Oc1coc2cc(OC)ccc2c1=O,6%
O=C(CSc1nnc(CNC(=O)c2ccccc2)o1)NCc1ccc(F)cc1,-19%
N#Cc1ccccc1NC(=O)COC(=O)c1ccc(F)cc1F,3%

(continued)
SMILES,VDR inhibitor
COc1ccccc1Nc1nc(N)nc(CSc2ncccn2)n1,-14%
Cc1ccc(N/N=C(\C#N)C(N)=S)cc1C,?
CCn1c(CC(=O)Nc2ccccc2F)nnc1SCC(=O)Nc1nnc(C)s1,12%
Cc1coc2c1c(C)cc1oc(=O)c(CC(=O)NCC(=O)O)c(C)c12,-16%
CCCC(=O)Nc1ccc(Cl)c(NC(=O)C(C)(C)C)c1,-12%
Cc1ccccc1N(C(=O)c1csnn1)C(C(=O)NC1CCCCC1)c1ccncc1 (stereo not given),-9%
Cc1cccc(OCCC(=O)NCC(=O)Nc2cccc(C)c2C)c1,-8%
CCOc1ccc(N2C(=O)CC(SC(=NC)Nc3ccc4c(c3)OCO4)C2=O)cc1 (stereo not given),-1%
COc1cccc(COCCN2CCN(S(=O)(=O)c3ccccc3)CCC2=O)c1,-3%
COc1ccc(-n2c(=O)c3ccc(C(=O)NCc4ccc(C)cc4)cc3n(Cc3ccc(C)cc3)c2=O)cc1,0%
COc1ccc(N2CCN(S(=O)(=O)CCNC(=O)/C=C/c3ccc4c(c3)OCO4)CC2)cc1,-11%
O=C(NC(Cc1ccccc1)c1ccc2c(c1)OCCCO2)c1ccccc1 (stereo not given),18%
Cc1ccc(SCc2ccc(C(=O)Nc3cc([N+](=O)[O-])ccc3C)cc2)cc1,3%
Cc1cccc(-n2c(-c3ccoc3C)n[nH]c2=S)c1,-4%
CCn1cc(C2=NC(C)(C)CO2)c2ccccc21,-19%
COc1ccccc1S(=O)(=O)Cc1ccc(C(=O)NC(C)c2ccc3c(c2)OCCO3)o1 (stereo not given),8%
C=CCNc1nc2ccccc2nc1NS(=O)(=O)c1cccs1,11%
CC1=C(C(=O)O)N2C(=O)C(NC(=O)c3ccccc3Cl)C2SC1 (stereo not given),-4%
Cc1ccc2[nH]c(CCN(C)C)c(CC#N)c2c1,20%
COC(=O)C1=C(C)OC(N)=C(C#N)C1c1cc(C)sc1C (stereo not given),5%
OCC[C@H]1C[C@H](O)[C@@H](O)[C@@]2(CCCCO2)O1,6%
COc1cc(C(=O)Oc2ccccc2OC(=O)c2cc(OC)c(OC)c(OC)c2)cc(OC)c1OC,-4%
CCNc1nc(NCC)n2c(SCC(=O)NCC3CCCCC3)nnc2n1,-22%
Cc1ccc(NC(=O)COC(=O)COc2cccc3c2OC(C)(C)C3)c(C)c1,9%
CC(=O)Nc1ccc(S(=O)(=O)NCCC(=O)OCC(=O)c2ccc(F)c(F)c2)cc1,-7%
CCOc1ccc(C(=O)NCc2cccnc2)cc1[N+](=O)[O-],17%
COc1cc2c(cc1OC)C(c1cccs1)N(C(=O)c1ccncc1)CC2 (stereo not given),-12%
CCCCc1nc(Cl)c(C#N)c2c1CSC(C)(C)C2,6%
CC(C)CNC(=O)C(=O)NCc1ccccn1,2%
Cc1ccc(CCNC(=O)C2CCN(S(=O)(=O)c3ccc4c(c3)NC(=O)CO4)CC2)cc1,-8%

VDR inhibitor, entries above that show a hit
SMILES,VDR inhibitor
CSc1ccc(-c2sc(Nc3cccc4ccccc34)n[n+]2-c2ccccc2)cc1,79µM*

Following part.
SMILES,VDR inhibitor
O=C1CC(c2ccccc2)Cc2nc(NC3CC3)ncc21 (stereo not given),0%
CC(=O)Nc1ccc(NC(=O)CSc2nccn2C)cc1,6%
COC(C[C@@H](O)C[C@H](O)[C@@H](C)OCc1ccccc1)OC,0%
CCCOC(=O)c1ccc(S(N)(=O)=O)o1,-11%
CC1CCN(C(=O)Cn2cc(C#N)c3ccccc32)CC1,0%
COc1ccc(Cn2c(-c3ccc(OC)cc3)nc3ccccc32)cc1,-6%
Cc1cccc(OCC(=O)Nc2ccc(-c3nc4cc(C)ccc4o3)c(O)c2)c1,-4%
CN(C)CCN(C(=O)c1ccc2c(c1)CCCC2)c1nc2c(F)cccc2s1,-22%
O=C(CSc1nnc(COc2cccc3cccnc23)o1)c1ccc(F)cc1,-5%
Cc1cc(=O)oc2cc(OCC3CC(c4ccc(Cl)cc4)=NO3)ccc12 (stereo not given),6%
C[C@](O)(C(=O)Nc1ccc(S(=O)(=O)c2ccccc2)cc1)C(F)(F)F,4%
CCn1ncc(Cl)c1C(=O)NC(=S)Nc1c(C)cc(C)cc1[N+](=O)[O-],-2%
COc1ccc(C(=O)NNC(=S)NC(=O)c2ccccc2)cc1,5%
c1cc2c(cc1Cn1cnnn1)OCO2,-16%
O=C(NCC(=O)N1CCN(C(=O)c2ccccc2)CC1)c1ccccc1,7%
COc1cccc(C2CC(c3ccc(Cl)cc3)Nc3nc(N)nn32)c1 (stereo not given),-6%
COc1ccc(N2CCN(C(CNC(=O)C(=O)NCCc3ccccc3)c3cccnc3)CC2)cc1 (stereo not given),2%
CC(=O)C1=C(c2ccc(Cl)cc2)N(C(C)=O)n2c(nnc2C2CCCCC2)S1,-1%
Fc1ccc(Cl)cc1/C=N/n1cnnc1SCc1ccccc1,-10%
CCOc1ccc(C(=O)COC(=O)c2cc([N+](=O)[O-])ccc2N2CCOCC2)cc1,3%
O=C1CCC([N+](=O)[O-])C(c2ccc(Cl)cc2Cl)N1 (stereo not given),20%
CC(=O)Nc1cccc(C(=O)OC(C)C(=O)NCc2ccc3c(c2)OCO3)c1 (stereo not given),1%
COc1ccc(Cl)cc1NC(=O)CN(C)C(=O)CCSc1ccc(C)cc1,-1%
CCC(=O)Nc1ccc(-c2nc3ccccc3c(=O)o2)cc1,-1%
[2H]C(CCOS(N)(=O)=O)c1ccc(C(C)(C)C)cc1 (stereo not given),2%
N#Cc1c(-c2ccc([N+](=O)[O-])cc2)nc2n(c1=O)CCS2,-11%
Cc1cccc(C)c1NC(=O)NN=C1CCCCC1,12%
CCn1c(SCC(=O)Nc2ccc3c(c2)OCO3)nnc1-c1cnccn1,-10%
CC1=C(/C=C/C(C)=C/C=C/C(C)=C\C(=O)O)C(C)(C)CCC1,50µM*!
COc1ccc(CN(CC(=O)NCc2ccc3c(c2)OCO3)C(=O)c2csnn2)cc1,-11%

Compounds from the list above containing a COOH group (five):
SMILES,VDR inhibitor
CN1C(=O)/C(=C/c2ccc(-c3ccccc3[N+](=O)[O-])o2)SC1=Nc1ccc(Cl)c(C(=O)O)c1,?
O=C(O)c1ccc2c(c1)C(=O)N(N1C(=O)c3ccccc3C1=O)C2=O,3%
Cc1coc2c1c(C)cc1oc(=O)c(CC(=O)NCC(=O)O)c(C)c12,-16%
CC1=C(C(=O)O)N2C(=O)C(NC(=O)c3ccccc3Cl)C2SC1 (stereo not given),-4%
CC1=C(/C=C/C(C)=C/C=C/C(C)=C\C(=O)O)C(C)(C)CCC1,50µM*!

Back to the main list; the four compounds before the break are reprinted first.
SMILES,VDR inhibitor
Cc1cccc(C)c1NC(=O)NN=C1CCCCC1,12%
CCn1c(SCC(=O)Nc2ccc3c(c2)OCO3)nnc1-c1cnccn1,-10%
CC1=C(/C=C/C(C)=C/C=C/C(C)=C\C(=O)O)C(C)(C)CCC1,50µM*!
COc1ccc(CN(CC(=O)NCc2ccc3c(c2)OCO3)C(=O)c2csnn2)cc1,-11%
O/N=C/c1ccc(OCc2ccccc2F)c(Cl)c1,3%
CCCn1nc(C(=O)Nc2nnc(C3CC3)s2)c2ccccc2c1=O,-24%
Cn1cccc1CNC(=O)Nc1ccc(Cl)c(Cl)c1,-7%
CCN1C(=O)/C(=C\c2cn(CCC#N)nc2-c2ccc(F)cc2)SC1=S,4%
CC(C)S(=O)(=O)c1cnc(-c2ccccn2)nc1N,-6%

From PubChem BioAssay
